Screening results from PubChem.
MT1-MMP txn act = activates MT1-MMP transcription; AID 750; 0.16% of 86,000 active; HT1080 MT1-MMP promoter luciferase reporter, luminescence, overnight; hits give high values; activation factor at 10 µM;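 active = activation factor of at least 2 for MT1-MMP transcription at 10 µM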
S1P2 antag = blocks the human S1P2 receptor; cell-based S1P2 antagonist assay, inhibition at 5 uM; inhibition, % at 5 µM; 0.21% of 97,000 active; in the data active = inhibition above about 45%;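 also: CRE beta-lactamase reporter cells expressing human S1P2 stimulated with S1P; 0% = agonist at EC80 alone and 100% = agonist plus reference antagonist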
Rev-RRE block = disrupts HIV-1 Rev binding to RRE RNA; P05866; Rev peptide-RRE RNA binding, FRET; inhibition, % at 8 µM; 0.79% of 97,000 active;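 active = inhibition above the screen-wide mean plus 3 SD, cut at about 35% in these data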;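 also: 0% = median DMSO wells and 100% = median Neomycin B control wells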
Target sequence (P05866 whole entry, looked up): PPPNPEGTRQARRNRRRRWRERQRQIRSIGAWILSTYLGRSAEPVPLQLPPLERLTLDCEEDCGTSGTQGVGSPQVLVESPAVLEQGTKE
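Test system: labelled RRE RNA duplex and labelled Rev peptide. Times: 5 min compound–RNA preincubation, then 15 min with peptide, 25 °C. Doses: single-dose 8 µM. Measured by: FRET, excitation 480 nm, emission 540 nm donor and 671 nm acceptor. Measure: % inhibition of FRET ratio versus controls.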
S1P2 agonist = activates the human S1P2 receptor | S1P2-expressing cell line, agonist reporter read-out | activation, % at 4.5 µM | 0.46% of 97,000 active | AID 729; in the data active = activation above about 16%;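 also: 0% = vehicle low control and 100% = maximal reference agonist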
PLK1 kinase inh = PLK1 (human) kinase inhibition; P53350; 0.53% of 97,000 active; inhibition, % at 10 µM; recombinant PLK1 kinase, TR-FRET peptide phosphorylation;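 active = inhibition of 50% or more in the single-concentration screen; inactive = inhibition below 50%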;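 also: 0% = DMSO max control and 100% = H-89 dihydrochloride min control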
EphB4 antag = antagonists of human EphB4-ephrin-B2 interaction; 0.15% of 97,000 active; inhibition, % at 7 µM; EphB4 LBD / TNYL-RAW-Alexa532 peptide, fluorescence polarization;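 active = inhibition above the screen-wide mean inhibition plus 3 SD, cut at about 15% in these data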;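 also: 0% = DMSO wells and 100% = excess unlabeled TNYL-RAW peptide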
Target sequence (P54760 whole entry, looked up, the tested form may be a part): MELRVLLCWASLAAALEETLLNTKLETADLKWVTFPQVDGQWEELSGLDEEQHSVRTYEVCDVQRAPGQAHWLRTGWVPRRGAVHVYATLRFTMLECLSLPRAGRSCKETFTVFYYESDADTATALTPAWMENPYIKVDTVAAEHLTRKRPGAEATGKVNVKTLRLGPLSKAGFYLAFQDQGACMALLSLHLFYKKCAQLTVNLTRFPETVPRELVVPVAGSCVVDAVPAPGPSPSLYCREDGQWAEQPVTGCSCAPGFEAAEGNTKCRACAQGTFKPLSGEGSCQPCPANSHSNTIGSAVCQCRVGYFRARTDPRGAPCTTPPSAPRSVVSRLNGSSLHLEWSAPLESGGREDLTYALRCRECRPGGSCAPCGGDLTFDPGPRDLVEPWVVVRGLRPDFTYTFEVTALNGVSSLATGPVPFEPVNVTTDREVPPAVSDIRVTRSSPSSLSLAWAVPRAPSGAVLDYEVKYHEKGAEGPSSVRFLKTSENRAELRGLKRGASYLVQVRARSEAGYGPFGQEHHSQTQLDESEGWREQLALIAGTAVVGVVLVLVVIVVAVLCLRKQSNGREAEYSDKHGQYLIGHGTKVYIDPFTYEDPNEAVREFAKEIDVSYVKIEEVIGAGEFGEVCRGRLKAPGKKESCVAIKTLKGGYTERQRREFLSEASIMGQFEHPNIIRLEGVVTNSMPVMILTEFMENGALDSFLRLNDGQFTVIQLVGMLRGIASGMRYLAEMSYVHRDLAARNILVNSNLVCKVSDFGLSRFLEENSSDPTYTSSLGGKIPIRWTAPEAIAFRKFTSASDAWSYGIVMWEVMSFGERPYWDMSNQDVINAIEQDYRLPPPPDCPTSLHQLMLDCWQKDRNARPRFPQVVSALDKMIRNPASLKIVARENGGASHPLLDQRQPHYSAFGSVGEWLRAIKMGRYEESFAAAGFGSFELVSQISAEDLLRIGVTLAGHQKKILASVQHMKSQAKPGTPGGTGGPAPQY
Plk1 PBD FP = blocks phosphopeptide binding to human Plk1 polo box domain | inhibition, %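 (tested at about 20 µM)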 | P53350 | AID 693 | 0.13% of 97,000 active | Plk1 PBD phosphopeptide binding, fluorescence polarization; in the data active = inhibition above about 34%, passing the limit was not always enough
PLAP activator = activates human placental alkaline phosphatase | purified PLAP enzyme, luminescent substrate read-out; hits give high values | 1.2% of 96,000 active | P05187 | activation fold at 20 µM; in the data active = activation fold above about 2
* marks the source's active call; other numbers are inactive results; · = not tested or not shown. Some of the compounds tested; count on the stated rates, not on these rows.

MT1-MMP txn act,S1P2 antag,Rev-RRE block,S1P2 agonist,PLK1 kinase inh,EphB4 antag,Plk1 PBD FP,PLAP activator,Molecule
1.3,-1.5,-2.5,-10.3,-3.9,-0.7,-3.4,1.8,O=C(c1ccco1)N1CCN(c2nc(C3CC3)nc3sc4c(c23)CCCC4)CC1
1.1,16.4,11.0,1.4,10.0,2.1,-12.0,1.3,Cc1sc(NC(=S)NC(=O)c2ccc(C(C)(C)C)cc2)c(C#N)c1C
·,2.5,11.4,0.5,-12.4,-2.1,16.8,0.9,Nc1c(-c2ccc(Cl)cc2)cnn1C1CCS(=O)(=O)C1 (stereo not given)
1.1,15.5,18.4,-2.6,-9.2,-1.8,-9.5,·,O=c1cc(NCc2ccco2)[nH]c(=O)n1-c1ccc(Br)cc1
1.2,-0.6,-4.0,-4.0,-10.0,-4.2,-9.8,1.2,COc1ccc(-c2csc(N3CCC(C(N)=O)(N4CCCCC4)CC3)n2)cc1
1.4,10.8,6.3,-5.6,-11.5,5.2,10.2,1,COc1cccc(OC)c1C(=O)NC(=S)Nc1ccc2c(c1)Cc1ccccc1-2
·,-4.1,6.2,-7.2,-11.3,1.9,25.4,1.2,CC(=O)NS(=O)(=O)c1cccnc1Nc1cccc(Cl)c1
1,-2.1,-0.8,-2.9,-5.0,-10.6,17.7,1,O=C1CC(c2cccc(Br)c2)C2=C(CCCC2=O)N1 (stereo not given)
·,13.6,6.7,-2.9,-6.6,1.9,8.8,1.1,Cc1ccsc1C1Nc2ccc3ncccc3c2C2=C1C(=O)CC(C)(C)C2 (stereo not given)
·,25.8,3.2,-5.2,-4.9,-0.7,15.7,1,CCCCCC(=O)Nc1ccc(S(=O)(=O)Nc2nccnc2OC)cc1
1.1,1.8,2.1,-3.8,-9.5,-3.0,-1.2,0.9,O=C(COc1ccccc1)N1CCN(C(=O)Cc2ccccc2)CC1
1.2,22.6,13.4,-5.5,-2.3,1.4,-14.5,0.7,Oc1ccccc1-c1nc(NCC2CCCO2)c2ccccc2n1 (stereo not given)
1.1,-21.8,5.0,-0.3,-0.7,-7.4,-19.7,1.1,CCOC(=O)c1sc(NC(=O)CSc2n[nH]c(-c3ccncc3)n2)c(C#N)c1C
1.2,-19.8,2.7,-1.2,-6.5,-4.1,-13.5,1.5,Cc1ccccc1-n1c(Cn2c(=O)sc3ccccc32)nnc1SCC(=O)N1CCOCC1
1,-1.4,-2.1,0.0,-2.5,-4.5,-19.6,1.1,O=C(CN1CCOCC1)Nc1ncc(Br)cc1Br
·,-7.4,5.6,-4.2,-6.9,-1.3,-8.0,0.9,CC(=O)Nc1ccc(S(=O)(=O)NNC(=O)c2cccc3ccccc23)cc1
1.5,3.2,-0.8,-5.0,-11.7,-5.7,-13.1,1,C=CCN(C(=O)Nc1ccc2oc(C)nc2c1)c1ccccc1
1,-14.6,8.4,-4.4,-8.1,4.7,1.7,1.1,N#Cc1nc(-c2ccc(OCc3ccccc3)cc2)oc1N1CCC(C(N)=O)CC1
1.5,14.6,3.5,-2.9,2.2,5.0,15.8,1.3,COc1ccc(-c2cnc(N)n2CC2CCCO2)cc1 (stereo not given)
1.1,6.0,4.9,-9.3,-2.6,-7.2,-3.4,1.1,Cc1ccnc(N2CCC(C(=O)NC3CCCCCC3)CC2)n1
1.1,3.4,-2.7,-7.8,2.2,-5.4,2.1,·,CCC(=O)N1C(=O)CCN(C(C)=O)c2ccccc21
1.2,12.7,8.8,-4.8,-1.8,6.8,2.3,1,COC(=O)c1ccc(C2CC(=O)NC3=C2C(=O)CCC3)cc1 (stereo not given)
·,4.8,2.0,1.0,-4.3,-2.6,-13.2,0.9,CC(NC(=O)Cc1ccc(F)cc1)c1ccccc1 (stereo not given)
1.2,-22.4,8.6,0.8,-9.3,3.4,-5.3,1,CCCCCC(=O)Nc1ccc2oc(-c3cccnc3)nc2c1
1.2,-4.1,2.5,-0.6,-5.0,3.0,-10.9,1.5,CCOc1ccc(-n2c(SCc3nc(-c4cccs4)no3)nnc2-c2ccncc2)cc1
1,10.0,0.5,-3.9,-9.8,-5.8,-13.0,1.5,CC(C)Sc1nc2sc3c(c2c2nnc(SCC(=O)NCc4ccco4)n12)CCCC3
1.2,-14.8,0.5,1.2,-8.8,5.0,-30.5,1.2,COc1ccccc1CNC(=O)c1nn(-c2ccc(C)cc2)c(=O)c2c1c1ccccc1n2C
1.2,-11.7,2.0,-14.1,1.9,-1.7,-42.9,1,CCn1c(SCc2nc(-c3ccc(Cl)cc3)no2)nnc1-c1ccco1
·,-26.8,-3.0,-3.6,-22.6,-9.4,10.5,1.4,CCOCCCN(Cc1ccco1)C(=O)c1cc2c(=O)[nH]c3ccc(C)cc3c2s1
1,-1.3,6.8,-7.8,-5.1,-5.5,-8.1,2.2*,COc1cccc(Oc2cn[nH]c2-c2ccc(OC)cc2O)c1
·,-18.9,0.6,-6.7,-5.5,0.5,2.7,1.5,Fc1ccc(-n2c(Cc3ccccc3)nnc2SCc2nc(-c3ccc(Cl)cc3)no2)cc1
1.1,3.1,1.9,-10.8,4.1,4.2,-27.0,0.9,O=C(CCC(=O)c1cccs1)NC(c1ccccc1)c1ccccc1

The list goes on, overlapping the part above by 2 compounds.
MT1-MMP txn act,S1P2 antag,Rev-RRE block,S1P2 agonist,PLK1 kinase inh,EphB4 antag,Plk1 PBD FP,PLAP activator,Molecule
·,-18.9,0.6,-6.7,-5.5,0.5,2.7,1.5,Fc1ccc(-n2c(Cc3ccccc3)nnc2SCc2nc(-c3ccc(Cl)cc3)no2)cc1
1.1,3.1,1.9,-10.8,4.1,4.2,-27.0,0.9,O=C(CCC(=O)c1cccs1)NC(c1ccccc1)c1ccccc1
1,10.9,8.9,-15.9,-10.7,4.4,20.6,1.4,O=S(=O)(Nc1nc2ccccc2nc1NCCN1CCOCC1)c1cccc(Cl)c1
1.1,-31.3,-2.6,0.0,67.8*,-3.2,19.3,1.6,CC(=O)N1CCc2cc(C(=O)CN3CCCN(Cc4ccc(F)cc4)C3)ccc21
1.2,1.5,-3.9,10.9,-4.6,0.6,-17.7,1,Cn1c(C(=O)NCC2CCCO2)cc2c(=O)n3ccccc3nc21 (stereo not given)
0.9,20.6,3.2,-4.1,4.4,-5.4,0.5,0.9,O=C(Cc1ccccc1)Nc1cccc(-c2nc3ncccc3o2)c1
1.1,16.2,0.5,-2.0,-4.5,3.3,1.2,1.5,CN1CCN(S(=O)(=O)c2ccc(N3CCN(S(=O)(=O)/C=C/c4ccccc4)CC3)nc2)CC1
1.3,12.1,16.0,-4.6,-13.2,-1.0,3.5,·,CC1CC(C(F)F)n2nc(C(=O)Nc3sc4c(c3C#N)CCC(C(C)(C)C)C4)nc2N1 (stereo not given)
·,-16.1,-0.5,1.7,-15.5,3.9,4.6,0.8,COCC(=O)Nc1cc(C(=O)Nc2cccc(C)c2C)ccc1Cl
1.1,19.3,6.0,-10.0,-11.8,-2.1,10.8,1.9,Cc1nn(-c2ccc(Cl)cc2)c2[nH]c(=O)c(CNCc3ccc4c(c3)OCO4)cc12
1.2,14.9,5.4,-9.9,-16.2,3.6,14.7,1,CN(C)C(=O)N1CCCC(C(=O)NCc2ccccc2)C1 (stereo not given)
1,7.5,3.8,4.5,-12.6,2.6,-5.0,1,Cc1cc(N)n(-c2nc(-c3cccnc3)nc3ccccc23)n1
1,-5.5,3.2,-1.5,-11.7,-3.4,9.8,0.9,Cc1ccc(S(=O)(=O)NCCNC(=O)C2CCCNC2=O)cc1 (stereo not given)
1.1,-5.7,0.6,-5.3,10.7,6.1,25.1,1,Cc1ccc(-c2nn3c(C)nnc3s2)cc1NC(=O)C(C)C
1.8,14.1,10.4,-11.9,-7.8,0.9,-30.2,1.2,Oc1[nH]c2ccccc2c1/C=N/c1nccs1
1.1,-18.0,0.0,-1.1,-5.5,4.1,-7.3,1.7,COc1ccc(CCN2C(=O)c3[nH]nc(-c4ccccc4O)c3C2c2ccc(C)cc2)cc1OC (stereo not given)
·,-4.1,4.1,-8.8,-13.9,5.0,-47.8,0.9,CCOC(=O)c1cc(NC(=O)c2ccccc2)c(=O)oc1-c1ccccc1
1.1,-32.5,-1.9,-8.7,-9.7,-1.0,10.0,1,CCCCn1c(-c2ccco2)nc2ccccc2c1=O

2 of the compounds above, with values under each structure.
The line under a structure holds: MT1-MMP txn act	S1P2 antag	Rev-RRE block	S1P2 agonist	PLK1 kinase inh	EphB4 antag	Plk1 PBD FP	PLAP activator
> COc1ccc(-c2csc(N3CCC(C(N)=O)(N4CCCCC4)CC3)n2)cc1
 : 1.2	-0.6	-4.0	-4.0	-10.0	-4.2	-9.8	1.2
> Cc1cc(N)n(-c2nc(-c3cccnc3)nc3ccccc23)n1
 : 1	7.5	3.8	4.5	-12.6	2.6	-5.0	1

Further results
MT1-MMP txn act,S1P2 antag,Rev-RRE block,S1P2 agonist,PLK1 kinase inh,EphB4 antag,Plk1 PBD FP,PLAP activator,Molecule
1.2,-0.6,0.8,-2.3,-6.8,6.4,6.3,1.6,Cc1nc2sc3c(c2c2nnc(SCC(=O)NCc4ccco4)n12)CCCC3
1,12.2,7.5,-4.7,-7.9,5.9,-7.3,1.1,CCOC(=O)N1CCN(C(=O)Nc2ccc3oc(C)nc3c2)CC1
·,-29.4,11.7,-1.6,-13.4,-3.4,5.1,1,Cc1oc(/C=N/NC(=O)CN(c2ccccc2Br)S(C)(=O)=O)cc1Br
1.2,1.3,6.6,-6.3,-8.1,-0.3,1.2,0.9,CCCCn1nnnc1NCc1cccs1
1.1,2.0,8.2,-3.4,0.2,5.8,53.3*,1,CC1CN(C2CC(C)(C)NC(C)(C)C2)CCC1=O (stereo not given)
1.5,-1.5,3.3,-7.1,0.6,3.0,0.7,1.1,O=C1CCCC2=C1C(c1ccco1)Nc1ccc3ccccc3c12 (stereo not given)
1.1,-17.2,-0.8,-5.5,-12.3,-2.3,-10.9,0.9,Cc1cc2oc(=O)c3c(c2cc1OC(=O)c1ccco1)CCCC3
·,-4.5,4.3,-1.2,-15.4,3.8,8.0,1.1,Cc1cc(C)n2c(SCC(=O)Nc3ccc(Cl)cn3)nnc2n1
1.7,20.6,2.2,-2.5,-8.3,5.8,-9.1,1,COc1ccc(N=CC2=C(O)CCCC2=O)cc1
1,-1.8,10.5,-1.7,7.9,0.3,3.8,1.8,O=C(NCCN1CCOCC1)c1cc2c(=O)n3ccccc3nc2n1Cc1ccccc1
1.2,14.7,10.2,-14.0,-3.1,7.7,18.7,1.5,CCCCn1c(NC(=O)c2ccccc2)nc2ccccc21
1,-15.2,-0.2,-1.2,-3.6,1.7,4.1,1.3,CCCN1CCN(C(=O)CCCNC(=O)Cn2cnc3sc(C)c(C)c3c2=O)CC1
0.7,33.8,-3.3,-3.4,-6.4,1.9,-15.1,1.7,COc1ccc(CNc2nc3c(c(=O)n(Cc4ccc(Cl)cc4)c(=O)n3C)n2C)cc1
1.1,-0.8,7.6,-6.0,-23.0,2.8,1.8,0.8,c1ccc(-c2nnc(N3CCN(c4ccccn4)CC3)c3ccccc23)cc1
1,-13.9,4.7,-5.0,-4.4,2.2,-16.1,1.1,Cc1cc(=O)oc(C)c1C(=O)NCC1CCCO1 (stereo not given)
·,2.4,6.9,-3.5,-10.9,1.6,21.9,1,Cc1ccc([N+](=O)[O-])cc1-c1ccc2cccc(C)c2n1
1.1,-17.0,0.9,-0.6,-11.6,-3.8,-13.1,1.6,CC(C(=O)NCC1(c2ccccc2)CCCC1)N1CCOCC1 (stereo not given)
1.1,11.8,1.0,-4.0,-7.1,3.7,-0.9,1.3,O=C(C1CCCCN1S(=O)(=O)c1ccccc1)N1CCN(C(c2ccccc2)c2ccccc2)CC1 (stereo not given)
·,3.1,12.4,-0.5,-9.8,1.7,-47.5,1.5,CCOCCCNC(=S)NCCCNc1nc2cc3c(cc2cc1C#N)OCO3
1,-29.1,2.6,1.4,-2.6,-5.2,9.7,1.1,Cc1ccc(N=CC2=C(O)CC(C)(C)CC2=O)nc1
1.1,-2.2,-3.6,-3.5,-6.9,0.8,1.2,1.6,CN1CCN(c2ccccc2NC(=O)c2ccc(Br)o2)CC1
·,9.3,7.8,-8.1,-13.4,0.4,-19.7,1.4,CCOC(=O)c1cc(NC(=O)c2ccc(Cl)cc2)c(=O)n2c1oc1ccc(Cl)cc12
1.4,-2.9,4.0,-9.4,2.1,5.3,-16.1,0.9,C=CCSc1n[nH]c(-c2ccc(OC)cc2)n1
1.2,-6.7,6.6,-4.7,-16.7,6.1,33.9,1.2,COc1ccc(-n2c(SCCC(=O)O)nnc2-c2ccncc2)cc1
